Screening results deposited in PubChem by National Center for Advancing Translational Sciences (NCATS).
D2 agonist = human D2 receptor agonism in beta-arrestin assay | P14416 | DiscoveRx PathHunter D2 beta-arrestin, luminescence, 90 min; 100% = 57 uM dopamine signal | activation, % (concentration not given with the values) | 360,000 compounds, 0.084% hits | AID 624465; in the data active = activation above about 40%; inconclusive = about 15% to 40%; inactive = below about 15%; note: the text of the record calls up to 30% inactive
Target sequence (P14416 whole entry, looked up): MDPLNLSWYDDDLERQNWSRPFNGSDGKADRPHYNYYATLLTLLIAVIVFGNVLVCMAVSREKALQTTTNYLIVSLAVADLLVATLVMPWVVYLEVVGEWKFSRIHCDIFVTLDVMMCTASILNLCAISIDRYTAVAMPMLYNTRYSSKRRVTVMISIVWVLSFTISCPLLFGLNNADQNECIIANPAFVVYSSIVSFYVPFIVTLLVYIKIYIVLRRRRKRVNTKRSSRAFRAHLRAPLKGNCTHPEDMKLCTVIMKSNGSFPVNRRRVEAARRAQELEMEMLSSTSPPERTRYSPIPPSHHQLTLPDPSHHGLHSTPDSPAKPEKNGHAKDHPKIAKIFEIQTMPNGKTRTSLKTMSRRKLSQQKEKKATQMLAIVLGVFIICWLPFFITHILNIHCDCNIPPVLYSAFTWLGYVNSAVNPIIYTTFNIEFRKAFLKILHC
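Agonist mode: compounds alone added to overnight-plated D2 PathHunter cells for 90 min at 37 C, with 57 uM final dopamine (EC100) defining full response. Beta-arrestin recruitment detected by chemiluminescent reagent, read after 1 h at ambient temperature.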
D2 potentiator = positive allosteric modulators of human D2 dopamine receptor; potentiation, % (concentration not given with the values); P14416; 360,000 compounds, 0.23% hits; DiscoveRx D2 beta-arrestin cells, luminescence, 90 min; 100% = 57 uM dopamine signal; active = potentiation of 50% or more; inconclusive = 30% to 50%; inactive = 30% or less;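 note: tested on top of an EC20 dose of dopamine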
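D2 cells co-treated with compound plus 50 nM dopamine (EC20) for 90 min at 37 deg C to detect potentiation. Beta-arrestin recruitment was read as enzyme-fragment luminescence after 1 h at ambient temperature. Full response was set by 57 uM dopamine.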
CtBP-E1A inh = blocks the CtBP interaction with E1A; AlphaScreen GST-E1A/His-CtBP binding, 1536-well; stronger effect = lower value; control for the full effect not named in the record; activity change, % (test concentration not listed); 340,000 compounds, 0.49% hits; in the data active means activity change below about -65%; inconclusive means about -30% to -65%; inactive means above about -30%; note: % is set by controls: 0 for no effect and ±100 for the full control effect
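GST-E1A and His-tagged CtBP (125 nM each as 5X stock) were preincubated with pin-transferred compound for 2 h at 37 °C in the dark, then glutathione donor and nickel acceptor beads were added for 1 h before AlphaScreen reading.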
gsp ag = gsp mutant agonism | Potency, µM (highest dose often 76.9 µM), for the others: top-dose activation (cAMP increase), most hits filed as activators | gsp mutant cells, cAMP HTRF, 30 min; control for the full effect not named in the record | 340,000 compounds, 0.13% hits; active = well fitted activation curve with a large enough effect; inconclusive = small, poorly fitted or top-dose-only effect, or another doubt; inactive = no such curve, though single readings can be large or run the other way; cell line not stated here;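 note: phosphodiesterase inhibitor Ro 20-1724 added with compounds to block cAMP breakdown; potency is the fitted concentration of half-maximal effect; nearly all actives have a fitted effect of over 60% in size; about a fifth of the inactives were tested at one dose only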
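Cells stably selected in G418 were plated at 2000/well, grown 16-24 hr, then given compounds in DMSO with the PDE inhibitor […] (300 uM solution added) for 30 min at 37C; cAMP was read by HTRF.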
gsp antag = gsp mutant antagonism | Potency, µM (top dose mostly 76.9 µM), without a hit: top-dose activity change, negative = inhibition, actives largely listed as inhibitors | 340,000 compounds, 0.4% hits | gsp-mutant cells, cAMP HTRF, 30 min; control for the full effect not named in the record | AID 624288; active = falling curve of any shape with a large fitted effect; inconclusive = falling curve, mostly with a smaller effect; inactive = flat or rising curve; cell line not stated here;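 note: intracellular cAMP measured with PDE inhibitor Ro 20-1724 present during compound exposure; potency is the fitted concentration of half-maximal effect; % is set by controls: 0 for no effect and ±100 for the full control effect; nearly all actives have a fitted effect of over 65% in size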
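Cells in G418 medium, seeded 16-24 h, 37C; buffer exchange to DPBS + 1 mM CaCl2, 0.5 mM MgCl2, 0.05% BSA; cpds in DMSO + […] (300 uM stock), 30 min 37C; HTRF cAMP detection.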
Six1-Eya2 inh = inhibitors of human Six1/Eya2 interaction. 360,000 compounds, 0.56% hits. Q15475+O00167. activity change, % (test concentration not listed). AID 651725. AlphaScreen GST-Six1/His-Eya2 binding, biochemical; stronger effect = lower value; control for the full effect not named in the record; in the data active = activity change below about -65%; inconclusive = about -30% to -65%; inactive = above about -30%; note: % is set by controls: 0 for no effect and ±100 for the full control effect
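AlphaScreen luminescence read after one hour at 37 °C in darkness. Pin-transferred compounds met GST-Six1 and His-Eya2 protein (5X stock 250 nM/500 nM) plus glutathione donor and Ni-chelate acceptor beads (5X, 50 ug/mL).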
Starred values were filed as active, the others as inactive; [ ] = another dose, or the depositor's remark.

Results for Cc1ccc(-c2ccc(=O)n(CC(=O)N3CCN(c4cc(Cl)ccc4C)CC3)n2)cc1 ?
D2 agonist: -0.3; D2 potentiator: -3; CtBP-E1A inh: 3; gsp ag: -13%; gsp antag: -13%; Six1-Eya2 inh: -2

How did COC(=O)[C@H](CC(C)C)NC(=O)Nc1cccc(Br)c1 do in these assays?
D2 agonist: -0.7; D2 potentiator: -1; CtBP-E1A inh: -5; gsp ag: inconclusive; gsp antag: 4%; Six1-Eya2 inh: 7

How did COc1ccc(C(C(=O)NCC2CCCO2)N(Cc2cccs2)C(=O)c2snc(C(N)=O)c2N)cc1OC (centres undefined) do in these assays?
D2 agonist: -5.9; D2 potentiator: 7; CtBP-E1A inh: -9; gsp ag: inconclusive; gsp antag: -7%; Six1-Eya2 inh: -5

How did Cc1ccc(Cc2cnc(NC(=O)/C(C#N)=C/c3ccc(-c4cccc([N+](=O)[O-])c4)o3)s2)cc1 do in these assays?
D2 agonist: -2.1; D2 potentiator: 2; CtBP-E1A inh: -7; gsp ag: -34%[inhibitor]; gsp antag: 11%; Six1-Eya2 inh: -2

Results for COc1ccc(CC(=O)OCC(=O)Nc2ccc3c(c2)OCO3)cc1OC ?
D2 agonist: 0.4; D2 potentiator: -3; CtBP-E1A inh: 4; gsp ag: -7%[15.4 µM]; gsp antag: 0%; Six1-Eya2 inh: -5

What do the screens show for `Cc1cc(C(=O)OCC(=O)Nc2ccc(F)c(F)c2)c(C)o1`?
D2 agonist: -1.7; D2 potentiator: 3; CtBP-E1A inh: 0; gsp ag: 10%; gsp antag: -14%; Six1-Eya2 inh: -3

What do the screens show for `NS(=O)(=O)c1ccc(Nc2ncccc2[N+](=O)[O-])cc1`?
D2 agonist: 4.3; D2 potentiator: 25; CtBP-E1A inh: -3; gsp ag: 9%; gsp antag: -1%; Six1-Eya2 inh: 0

How did COc1cc(/C=C(\C#N)c2nc(-c3cc4ccccc4oc3=O)cs2)ccc1O do in these assays?
D2 agonist: -0.8; D2 potentiator: -12; CtBP-E1A inh: -7; gsp ag: 8%; gsp antag: -14%; Six1-Eya2 inh: -7

How did O=C(N/N=C/c1cccnc1)c1cccc(NC(=O)c2ccc(Cl)cc2)c1 do in these assays?
D2 agonist: -1.3; D2 potentiator: 4; CtBP-E1A inh: 0; gsp ag: -10%; gsp antag: 3%; Six1-Eya2 inh: -8

How did COc1ccccc1OCc1nnc(SCC(=O)c2cc(Cl)ccc2OC)o1 do in these assays?
D2 agonist: -1.1; D2 potentiator: -7; CtBP-E1A inh: -2; gsp ag: -13%; gsp antag: -7%; Six1-Eya2 inh: -2

How did COc1ccc(CCC(C)Nc2ccc(F)cc2)cc1 (centres undefined) do in these assays?
D2 agonist: 0.4; D2 potentiator: -4; CtBP-E1A inh: -1; gsp ag: 16%; gsp antag: -2%; Six1-Eya2 inh: 0

How did CCCSCCCNC(=O)c1cc2c(s1)CS(=O)(=O)C2 do in these assays?
D2 agonist: -0.7; D2 potentiator: 5; CtBP-E1A inh: 43; gsp ag: -9%; gsp antag: 8%; Six1-Eya2 inh: 13

How did CCOc1ccc(S(=O)(=O)N2CCCC(C(=O)NCc3ccncc3)C2)cc1 (centres undefined) do in these assays?
D2 agonist: -5.8; D2 potentiator: -4; CtBP-E1A inh: 3; gsp ag: inconclusive; gsp antag: -7%; Six1-Eya2 inh: 1

How did NS(=O)(=O)c1ccc(CNC(=O)c2cccc(S(=O)(=O)N3CCc4ccccc43)c2)cc1 do in these assays?
D2 agonist: 0.0; D2 potentiator: -14; CtBP-E1A inh: 10; gsp ag: -2%; gsp antag: -13%; Six1-Eya2 inh: 1

How did Cc1cccc(-n2c(SC(C)C(=O)O)nc3sc4c(c3c2=O)CCCC4)c1 (centres undefined) do in these assays?
D2 agonist: 0.9; D2 potentiator: 4; CtBP-E1A inh: 9; gsp ag: 3%; gsp antag: -25%; Six1-Eya2 inh: 14

How did COc1ccc(NC(=O)CSc2nc(O)cc(=O)n2-c2ccccc2OC)cc1 do in these assays?
D2 agonist: 3.5; D2 potentiator: 1; CtBP-E1A inh: 0; gsp ag: 39%; gsp antag: -5%; Six1-Eya2 inh: 0

What do the screens show for `COc1cccc(C(C)(O)c2nc(-c3ccc4ccccc4c3)cs2)c1` (centres undefined)?
D2 agonist: 9.9; D2 potentiator: -2; CtBP-E1A inh: 4; Six1-Eya2 inh: 0

How did CCC(=O)c1ccccc1OCCN1CCN(Cc2ccccc2)CC1 do in these assays?
D2 agonist: -7.3; D2 potentiator: -7; CtBP-E1A inh: 0; gsp ag: -4%[15.4 µM]; gsp antag: -5%; Six1-Eya2 inh: -24

Results for CC1CCN(C(=O)CCN2C(=O)C3C4C=CC(C4)C3C2=O)CC1 (centres undefined) ?
D2 agonist: 2.1; D2 potentiator: -2; gsp ag: -11%; gsp antag: -2%; Six1-Eya2 inh: 9

Results for COc1cc(NC(=O)CN2C(=O)NC(C)(CCC(C)C)C2=O)cc(OC)c1 (centres undefined) ?
D2 agonist: -1.3; D2 potentiator: -22; CtBP-E1A inh: -2; gsp ag: 9%; gsp antag: -1%; Six1-Eya2 inh: -3

How did Cc1ccc(CCN2CC(C(=O)NC3CCC(C)CC3)CC2=O)cc1 (centres undefined) do in these assays?
D2 agonist: -2.7; D2 potentiator: -11; CtBP-E1A inh: 0; gsp ag: 12%; Six1-Eya2 inh: 1

Results for COc1cccc(C(C)(O)c2nc(/C=C/c3ccccc3)cs2)c1 (centres undefined) ?
D2 agonist: -4.8; D2 potentiator: -5; CtBP-E1A inh: 1; Six1-Eya2 inh: 1

What do the screens show for `CCC(C)NC(=O)C1c2ccccc2C(=O)N1Cc1ccccc1OC` (centres undefined)?
D2 agonist: -3.0; D2 potentiator: 2; CtBP-E1A inh: 3; gsp ag: -35%; gsp antag: -8%; Six1-Eya2 inh: 4

How did Cc1cccc(NC(=O)c2cccc(S(=O)(=O)NCc3ccccc3)c2)n1 do in these assays?
D2 agonist: -2.5; D2 potentiator: -9; CtBP-E1A inh: 0; gsp ag: -35%[inhibitor]; gsp antag: -25%; Six1-Eya2 inh: 20

Results for COC(=O)c1cc2n(n1)CCN(Cc1ccccc1Cl)C2=O ?
D2 agonist: -1.4; D2 potentiator: -8; CtBP-E1A inh: 3; gsp ag: -1%; gsp antag: -2%; Six1-Eya2 inh: 2

How did COc1ccc([C@H]2CC(=O)C=C(c3ccc(OC(F)(F)F)cc3)C2)cc1OC do in these assays?
D2 agonist: 2.0; D2 potentiator: 3; CtBP-E1A inh: -7; gsp antag: -7%; Six1-Eya2 inh: -6

Results for CC1(C)CC(NC(=O)COc2ccccc2Cl)CC(C)(C)N1 ?
D2 agonist: -2.4; D2 potentiator: -8; gsp ag: 15%; gsp antag: 13%; Six1-Eya2 inh: -1

Results for COC(=O)CNC(=O)CCc1nnc(C2(c3ccc(Cl)cc3)CCC2)o1 ?
D2 agonist: -3.7; D2 potentiator: -10; gsp ag: 1%; gsp antag: -2%; Six1-Eya2 inh: 12

How did CCN1CCN(C(c2cccs2)C(C)NC(=S)Nc2cc(C)ccc2C)CC1 (centres undefined) do in these assays?
D2 agonist: -3.7; D2 potentiator: -33; CtBP-E1A inh: -6; gsp ag: -35%[inhibitor]; gsp antag: 11%; Six1-Eya2 inh: -3

How did COCCNC(=O)c1cnn2c(C(F)(F)F)cc(-c3ccc4c(c3)OCO4)nc12 do in these assays?
D2 agonist: -2.3; D2 potentiator: -3; CtBP-E1A inh: -6; gsp ag: 11%; gsp antag: 23%; Six1-Eya2 inh: -2

Results for CCC1(C)Cc2ccccc2-c2nc(SC)[nH]c(=O)c21 (centres undefined) ?
D2 agonist: -2.5; D2 potentiator: -14; CtBP-E1A inh: -2; gsp ag: 26%; gsp antag: 5%; Six1-Eya2 inh: 2

Results for CC(CC(=O)O)CC(=O)Nc1ccccc1C(=O)O (centres undefined) ?
D2 agonist: 0.4; D2 potentiator: 1; CtBP-E1A inh: 16; gsp ag: 1%; gsp antag: 11%; Six1-Eya2 inh: 7

How did Cc1ccc(C)c(Cn2nnc3c(=O)[nH]c(C(=O)Nc4ccc(F)cc4)nc32)c1 do in these assays?
D2 agonist: 1.7; D2 potentiator: 2; CtBP-E1A inh: 3; gsp ag: -9%[15.4 µM]; gsp antag: inconclusive; Six1-Eya2 inh: -9

What do the screens show for `CCCCCN1C(=O)Cn2c(nc3ccccc3c2=O)C1C` (centres undefined)?
D2 agonist: -7.5; D2 potentiator: 7; gsp ag: 30%; gsp antag: 7%; Six1-Eya2 inh: 10

What do the screens show for `CC(C)(Oc1ccc(Cl)cc1)C(=O)Nc1cccc(S(=O)(=O)NC2=NCCC2)c1`?
D2 agonist: 0.0; D2 potentiator: -3; CtBP-E1A inh: 9; gsp ag: 0%; gsp antag: 10%; Six1-Eya2 inh: 5

What do the screens show for `COc1ccc(C(CNC(=O)c2cc(S(=O)(=O)Nc3cccc(C)c3)ccc2C)N2CCOCC2)cc1` (centres undefined)?
D2 agonist: 7.3; D2 potentiator: -3; CtBP-E1A inh: 0; gsp ag: -5%; gsp antag: -7%; Six1-Eya2 inh: 2

Results for COc1ccc(F)c(CN2CCCC(CO)(Cc3cccc(Cl)c3)C2)c1 (centres undefined) ?
D2 agonist: -1.7; D2 potentiator: -45; gsp ag: -45%[inhibitor]; gsp antag: -3%; Six1-Eya2 inh: -3

Results for COc1cccc(/C=N/NC(=O)c2nnn(-c3nonc3N)c2CN(C)C2CCCCC2)c1 ?
D2 agonist: -2.1; D2 potentiator: -5; CtBP-E1A inh: -7; gsp ag: -22%; Six1-Eya2 inh: 2

How did O=S1(=O)CC(N2CCCCC2)CN1C1CCCCC1 (centres undefined) do in these assays?
D2 agonist: -2.7; D2 potentiator: -3; CtBP-E1A inh: 3; Six1-Eya2 inh: 2

An unsorted share of the library; any-hit rate near 1.4%.
